Compound activity from PubChem BioAssay.
PABP polyA inh: PABP-poly(A) binding inhibition; PABP-poly(A) RNA binding, fluorescence polarization; 290,000 compounds, 1% hits; inhibition, % at 35 µM;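 active = 50% or more with normal probe brightness, or confirmed in later tests; inconclusive = above 50% with abnormal brightness, or retests that disagree; inactive = below 50% or failed in later tests; about a fifth of its hits are not listed in these tables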;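 also: calls also rest on retests at 20 µM and on dose response follow-up; controls were probe without protein and protein plus probe with vehicle; some compounds called inactive have numbers as strong as hits; many hits fall short of the cut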
eIF4H FP inh: inhibitors of RNA binding by human eIF4H. Q15056. eIF4H fluorescence polarization binding assay. inhibition, % at 35 µM. 290,000 compounds, 0.94% hits. AID 2012;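 active = 50% or more with normal probe brightness, or confirmed in later tests; inconclusive = above 50% with abnormal brightness, or retests that disagree; inactive = below 50% or failed in later tests; about a fifth of its hits are not listed in these tables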;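 also: calls also rest on retests at 20 µM and on dose response follow-up; 0% = protein and probe with vehicle and 100% = probe without protein; strong numbers were not always called active; many hits fall short of the cut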
Env fusion inh: blocks HIV Env-driven cell-cell fusion | HeLa-JRFL Env/CEM21 cell fusion, luciferase | inhibition, % at 12.3 µM | 360,000 compounds, 1.1% hits | AID 651610;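 active = mean replicate inhibition score of at least 50 and every replicate individually at or above 50; inconclusive = only one of the two criteria met; inactive = mean below 50 and not all replicates reaching 50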;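 also: 0% = plate neutral controls and 100% = maraviroc near 300 nM; one replicate is shown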
CSC inhib: cancer stem cell inhibition; AID 2717; inhibition, % at 7.5 µM; 300,000 compounds, 1.1% hits; cancer stem cell-like cells viability, luminescence;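 active = mean at 75% or more and at least half the replicates too; inconclusive = mean and replicates disagree; tested in HMLE shEcad cells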;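 also: 0% = median of negative and 100% = median of positive control wells; the first replicate is given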
Rce1 inhib: yeast Ras-converting enzyme inhibition | Q03530 | yeast membranes, quenched prenylated peptide cleavage fluorescence | calls only | 290,000 compounds, 0.27% hits | AID 2563;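 active = fall in fluorescence gain of 50% or more versus controls, with final raw signal at or below 3038400; inconclusive = same 50% fall but final raw signal above 3038400; inactive = fall in fluorescence gain under 50%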;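 also: plate controls were neutral control wells for no effect and wells lacking membranes for full effect; tested at 10 µM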
Target sequence (Q03530 whole entry, looked up): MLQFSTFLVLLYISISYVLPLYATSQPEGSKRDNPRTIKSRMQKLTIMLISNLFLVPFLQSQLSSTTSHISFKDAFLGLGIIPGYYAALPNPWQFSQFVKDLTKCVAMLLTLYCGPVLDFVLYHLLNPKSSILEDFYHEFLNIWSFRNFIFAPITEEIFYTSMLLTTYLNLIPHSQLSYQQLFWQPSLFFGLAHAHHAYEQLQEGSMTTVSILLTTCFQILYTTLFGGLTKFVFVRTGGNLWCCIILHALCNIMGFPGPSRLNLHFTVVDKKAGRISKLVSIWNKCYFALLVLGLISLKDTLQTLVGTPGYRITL
UUG fidelity: alters start codon recognition fidelity in yeast. activity score, % at 18.7 µM. S. cerevisiae UUG-firefly luciferase reporter, luminescence/redox ratio. 350,000 compounds, 0.13% hits;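 active = replicate mean at a twofold rise or more, about +100% in these data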;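 also: firefly luciferase made from a UUG start codon reports start codon fidelity; reporter light over untreated wells divided by growth signal over untreated wells; some hits fall short of that in this replicate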
MT1-MMP act inh: inhibitors of human MT1-MMP activation; AID 651647; HT1080 RFP-PRO-GFP cells, GFP/RFP ratio fluorescence, overnight; percent of plate control window, DMSO zero; GFP/RFP ratio change, % at 20 µM; 360,000 compounds, 0.061% hits;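 active = GFP/RFP ratio change of at least 30% with cell ATP level not reduced by more than half and red fluorescence within 50% of control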; also: strong numbers were not always called active
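Read-out: GFP/RFP fluorescence ratio; Test system: RFP-PRO-GFP reporter HT1080 cells; Compound dosing: single-point 20 µM compound, 1% DMSO; Times: overnight compound exposure at 37 °C.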
MT1-MMP act inh RFP: also measured in MT1-MMP act inh; calls as there; RFP signal change, %; measured here: RFP expression control read;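 0 = vehicle wells; hits needed this value within 50% of zero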
Active calls of the source: *; i = inactive; ? = inconclusive; / = not tested or not shown; & = joins results of further samples.

SMILES	PABP polyA inh	eIF4H FP inh	Env fusion inh	CSC inhib	Rce1 inhib	UUG fidelity	MT1-MMP act inh	MT1-MMP act inh RFP
CC1=NN(Cc2ccccc2)C(=O)C1C(c1ccc(Cl)cc1)C(C#N)C#N (stereo unspecified)	0	6	19	5	i	/	9	1
COc1ccc(C(=O)Cn2cc[n+](C)c2)cc1	6	5	?	-10	i	-4	-2	0
CC(C)c1ccc(NC(=O)C2C3C=CC4(CN(Cc5cccnc5)C(=O)C24)O3)cc1 (stereo unspecified)	14	-10	0	-3	i	/	-1	2
COc1ccc(CC(=O)Nc2c3c(nn2-c2cccc(C)c2C)CS(=O)C3)cc1OC (stereo unspecified)	7	-9	/	-10	i	-4	1	2
COCCN(Cc1cc2cc3c(cc2nc1Cl)OCO3)C(C)=O	7	0	-9	-3	/	/	-1	-2
Cn1c(=O)c2c(nc(SCCN3CCOCC3)n2Cc2ccccc2Cl)n(C)c1=O	1	-6	10	-12	i	12	0	1
COc1ccc(CC2(CO)CCN(Cc3ccc4c(c3)CCO4)CC2)cc1	-5	-5	4	9	i	/	0	-3
CCCOc1c(Br)cc(C2C3=C(CCCC3=O)N(CC)C3=C2C(=O)CCC3)cc1OC	28	-5	-7	-9	i	/	-6	-6
O=C(c1c(F)cccc1F)N1CCN(c2cccc(C(F)(F)F)c2)CC1	7	6	/	0	/	1	-5	-6
Oc1c(Cl)cc(Cl)cc1/C=N/c1ncn[nH]1	7	5	-32	-6	i	/	1	6
COc1ccc(-c2nnc3ccc(SCC(=O)NCc4ccco4)nn23)cc1	5	8	-7	/	i	-30	-1	-2
CSc1ccccc1OCc1cc(C(=O)NCCN2CCCC(O)C2)no1 (stereo unspecified)	6	-2	-1	8	i	-5	-1	1
COc1cc(/C=N/OCC(=O)NC2CCS(=O)(=O)C2)ccc1OC(F)F (stereo unspecified)	-8	-7	1	-23	i	/	5	7
O=C(CSc1nnc(CNC(=O)c2ccco2)o1)Nc1ccc(F)cc1F	-6	-8	-3	16	i	-12	-1	5
CSCC(CO)NS(=O)(=O)c1ccc(C)cc1 (stereo unspecified)	-20	-9	6	-12	i	-13	-2	4
COc1ccc(OC)c(C(=O)c2ccccn2)c1	-11	5	7	-9	i	-15	-1	-1
Cc1ccccc1NC(=O)/C(=C\c1cccs1)NC(=O)c1ccccc1	5	-6	-54	-13	/	0	-4	-9
CC(C)c1ccc(NC(=O)CCNC(=O)Cn2ccc3ccccc3c2=O)cc1	9	-10	2	-4	i	-3	0	2
CCOC(=O)Cc1c(C)c2ccc(N(CC)CC)cc2oc1=O	-4	-1	-27	8	/	-49	3	4
CS(=O)(=O)N(CC(=O)N1CCCC1)c1cc(Cl)ccc1Cl	3	0	-9	-12	i	-6	1	0
COC(=O)/C(=C/c1cn(C)c2ccccc12)[N+](=O)[O-]	4	-2	/	/	i	/	/	/
CCC(C)[C@H](NC(=O)N1CC(=O)Nc2ccccc21)C(=O)N1CCC(C(=O)O)CC1 (stereo partly specified)	/	/	-4	-6	i	-6	4	5
CCC(=O)N1c2ccc(S(=O)(=O)N3CCN(C)CC3)cc2CC1C (stereo unspecified)	0	3	-5	-11	i	-3	-1	8
CN(C)C(=O)CSc1nnc(-c2ccc(F)cc2)c2ccccc12	3	12	-11	-29	/	/	6	1
Cc1cc(C2(c3ccc(O)c(C)c3)C(=O)Nc3ccccc32)ccc1O	-2	1	/	?	i	/	-8	-6

Taken from above:
Reading for CCCOc1c(Br)cc(C2C3=C(CCCC3=O)N(CC)C3=C2C(=O)CCC3)cc1OC under MT1-MMP act inh RFP: -6
Reading for CC(C)c1ccc(NC(=O)C2C3C=CC4(CN(Cc5cccnc5)C(=O)C24)O3)cc1 (stereo unspecified) under CSC inhib: -3

Going on with the list.
SMILES	PABP polyA inh	eIF4H FP inh	Env fusion inh	CSC inhib	Rce1 inhib	UUG fidelity	MT1-MMP act inh	MT1-MMP act inh RFP
Cn1cc(CCC(=O)N2CCCC(CCC(=O)NCc3ccc(F)c(F)c3)C2)cn1 (stereo unspecified)	8	10	-4	/	i	/	1	0
Cc1ccc(CNC(=O)CS(=O)(=O)c2ccccc2)cc1	6	5	9	-13	i	-19	-1	-2
Cc1c(NC(=O)CSc2nnc(-c3cccc(Cl)c3)o2)c(=O)n(-c2ccccc2)n1C	0	-8	/	-14	i	-8	-1	0
Cc1cc(Cl)ccc1OCCn1cncn1	10	1	-5	20	i	/	0	3
CCN(CCCC(=O)c1ccc(F)cc1)CCc1ccccc1	7	2	15	7	i	-1	2	2
COc1ccc([N+](=O)[O-])cc1NS(=O)(=O)c1cc(C(=O)O)ccc1OC	6	-7	-10	-6	i	-14	12	1
C[C@@H]1CN([C@H](C)CO)C(=O)CCCn2cc(nn2)CO[C@H]1CN(C)C(=O)Nc1cccc2ccccc12	/	/	10	/	/	2&12	9	5
COc1ccc(C2N(C(=O)CN3CCCC3)CCCN2S(=O)(=O)c2ccccc2)cc1 (stereo unspecified)	-5	0	0	-2	/	-20	-4	1
Cc1ccn2c(NC3CCCCC3)c(-c3cccc(SC4CCCCC4)c3)nc2c1	/	/	35&9	100*	/	-6	0&-10	-21&-25
O=C1CC(c2ccccc2)c2c(O)cc(O)cc2O1 (stereo unspecified)	6	7	/	-5	i	-15	-7	-12
CCOC(=O)Nc1nc2ccccc2s1	1	2	-177	1	i	-6	-5	-9
CCc1nnc(NC(=O)CCC(=O)NCc2ccccc2Cl)s1	-2	-11	-2	-7	i	3	5	8
CN(C)S(=O)(=O)c1ccc2c(c1)/C(=C/c1cc3c([nH]1)CCCC3)C(=O)N2	/	/	-32	9	/	-20	-44	11
Cc1ncc([N+](=O)[O-])n1CCN1C(=O)c2ccccc2C1=O	6	-9	-6	15	i	-14	1	3
Cc1cc(=O)n2[nH]c(-c3ccc(Cl)cc3)cc2n1	-2	-7	/	-15	/	-14	3	2
COc1ccc(NC(=S)Nc2cccnc2)c(OC)c1	7	-2	-7	/	i	5	-1	5
COc1cc(Cl)c(C)cc1NC(=O)COC(=O)c1cc(SC)ccc1Cl	-1	-7	17	-6	i	/	3	3
Cc1cc(C(=O)N/N=C(\CCC(=O)O)c2cccs2)c2ccccc2n1	-6	-3	-16	/	i	/	-1	1
CC(NC(=O)c1cccnc1)C(c1cccs1)N1CCOCC1 (stereo unspecified)	-13	-3	/	-9	i	-10	3	2
CN(Cc1nc2ccc(F)cc2[nH]1)C(=O)C1CCC(=O)N(C2CC2)C1 (stereo unspecified)	0	11	/	7	i	-12	0	3
COc1ccc2oc(C(=O)OC(C)C(=O)NCc3ccccc3)c(C)c2c1 (stereo unspecified)	/	/	9	/	i	/	4	2
CC(C)c1ccc(NC(=O)C2CCCCN2S(=O)(=O)c2ccccc2)cc1 (stereo unspecified)	/	/	2	/	/	-14	1	-9
Cc1nn(CC(=O)Nc2c(F)cc(F)cc2Br)c(=O)c2cccn12	12	-2	10	3	i	-5	1	6
COC1CCN(Cc2cn(Cc3ccccc3)nc2-c2cc3ccccc3o2)CC1	4	-5	-5	22	i	9	6	1
Cc1c(CCOC(=O)c2cc([N+](=O)[O-])cc([N+](=O)[O-])c2)sc[n+]1CC(=O)c1ccccc1	-2	-4	5	-20	i	4	0	3
Going on with the list:
SMILES	PABP polyA inh	eIF4H FP inh	Env fusion inh	CSC inhib	Rce1 inhib	UUG fidelity	MT1-MMP act inh	MT1-MMP act inh RFP
Cn1ncc(Cl)c1C(=O)NCc1ccc(Cl)cc1	2	2	-2	-13	i	/	4	-13
Cc1ccc([C@@H]2CC(=O)[C@@H]3CN(S(=O)(=O)c4ccc(C)cc4)[C@H](c4ccccc4F)C[C@@H]3N2S(=O)(=O)c2ccc(Cl)cc2)cc1	/	/	-28	/	/	1	-5	-8
CCCn1c(-c2ccccc2)cc(SC)c(C#N)c1=O	4	2	-35	-8	i	/	-5	0
CCOC(=O)C1=C(CS(=O)(=O)c2ccc(C)cc2)NC(=O)NC1c1cc(OC)c(O)c(OC)c1 (stereo unspecified)	-2	2	-10	-8	i	-8	1	2
CC(=O)N1CCN(c2ccc(NCc3ccc(-c4ccc(Br)cc4)o3)cc2)CC1	/	/	9	/	/	-27	11	-24
Cc1nonc1OCCNc1ccc([N+](=O)[O-])cc1	-2	-3	-2	-1	/	/	3	1
O=C(Nc1ncc([N+](=O)[O-])s1)C1CC(=O)N(c2ccc(F)cc2)C1 (stereo unspecified)	2	9	-4	21	i	0	-1	-4
Cc1cc(C)c2[nH]c(=O)c(C(c3nnnn3C(C)(C)C)N(Cc3ccco3)CC3CCCO3)cc2c1 (stereo unspecified)	16	3	26	8	i	55	-19	-14
O=C(CSc1nnc2scc(-c3ccc(Cl)cc3)n12)NCc1ccc2c(c1)OCO2	-2	6	/	/	i	/	5	-2
CCCc1cc(=O)[nH]c(SCC(=O)Nc2ccc(Br)cc2)n1	-2	-3	8	12	i	-13	2	-3
COc1ccc(CNc2nc3nc(C)c(Cl)c(=O)n3[nH]2)cc1	-1	-3	7	-6	i	-19	2	7
CCn1nc(C)cc1C(=O)N1CCCC(Nc2ccc(C(C)C)cc2)C1 (stereo unspecified)	2	-8	0	/	i	-4	4	2
O=c1[nH]ncc(N/N=C\c2ccncc2)c1Cl	-1	-9	-37	-7	i	-21	3	6
O=C(NCc1ccccc1Cl)C1CC(=O)N(Cc2ccccc2)C1 (stereo unspecified)	-6	0	5	6	i	/	-5	0
CC1(C)Cc2c(cnn2-c2ccc(F)cc2)C(NC(=O)C2=NNC(=O)CC2)C1 (stereo unspecified)	-2	-12	-16	-1	i	0	0	1
COC(=O)c1ccc(Oc2nc(NC(C)C)nc(SC)n2)cc1	7	-1	/	18	i	-6	-19	-18
c1ccc(CCC2CCCCN2Cc2cn[nH]c2-c2cc3ccccc3o2)nc1 (stereo unspecified)	7	-3	42	4	i	-8	2	3

Grouped by structure, the entries above containing an aryl thioether with sulfur outside any ring.
SMILES	PABP polyA inh	eIF4H FP inh	Env fusion inh	CSC inhib	Rce1 inhib	UUG fidelity	MT1-MMP act inh	MT1-MMP act inh RFP
Cn1c(=O)c2c(nc(SCCN3CCOCC3)n2Cc2ccccc2Cl)n(C)c1=O	1	-6	10	-12	i	12	0	1
COc1ccc(-c2nnc3ccc(SCC(=O)NCc4ccco4)nn23)cc1	5	8	-7	/	i	-30	-1	-2
CSc1ccccc1OCc1cc(C(=O)NCCN2CCCC(O)C2)no1 (stereo unspecified)	6	-2	-1	8	i	-5	-1	1
O=C(CSc1nnc(CNC(=O)c2ccco2)o1)Nc1ccc(F)cc1F	-6	-8	-3	16	i	-12	-1	5
CN(C)C(=O)CSc1nnc(-c2ccc(F)cc2)c2ccccc12	3	12	-11	-29	/	/	6	1
Cc1c(NC(=O)CSc2nnc(-c3cccc(Cl)c3)o2)c(=O)n(-c2ccccc2)n1C	0	-8	/	-14	i	-8	-1	0
Cc1ccn2c(NC3CCCCC3)c(-c3cccc(SC4CCCCC4)c3)nc2c1	/	/	35&9	100*	/	-6	0&-10	-21&-25
COc1cc(Cl)c(C)cc1NC(=O)COC(=O)c1cc(SC)ccc1Cl	-1	-7	17	-6	i	/	3	3
CCCn1c(-c2ccccc2)cc(SC)c(C#N)c1=O	4	2	-35	-8	i	/	-5	0
O=C(CSc1nnc2scc(-c3ccc(Cl)cc3)n12)NCc1ccc2c(c1)OCO2	-2	6	/	/	i	/	5	-2
CCCc1cc(=O)[nH]c(SCC(=O)Nc2ccc(Br)cc2)n1	-2	-3	8	12	i	-13	2	-3
COC(=O)c1ccc(Oc2nc(NC(C)C)nc(SC)n2)cc1	7	-1	/	18	i	-6	-19	-18
